High-throughput results from PubChem BioAssay.
GLA inh pH 4.5: alpha-galactosidase A (human) inhibition, pH 4.5 | P06280 | purified enzyme, 4-MU-alpha-Gal fluorescence, pH 4.5 | activity change, negative = inhibition, % at 105 µM | 230,000 tested, under 10 active | AID 1467; inconclusive = small, poorly fitted or top-dose-only inhibition, or a rising curve; inactive = flat fitted curve, though single readings scatter; no compound was filed as active;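 note: 0% = full activity with enzyme and -100% = basal without enzyme; dose as in the result columns while the protocol names 77 µM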
Target sequence (P06280 whole entry, looked up): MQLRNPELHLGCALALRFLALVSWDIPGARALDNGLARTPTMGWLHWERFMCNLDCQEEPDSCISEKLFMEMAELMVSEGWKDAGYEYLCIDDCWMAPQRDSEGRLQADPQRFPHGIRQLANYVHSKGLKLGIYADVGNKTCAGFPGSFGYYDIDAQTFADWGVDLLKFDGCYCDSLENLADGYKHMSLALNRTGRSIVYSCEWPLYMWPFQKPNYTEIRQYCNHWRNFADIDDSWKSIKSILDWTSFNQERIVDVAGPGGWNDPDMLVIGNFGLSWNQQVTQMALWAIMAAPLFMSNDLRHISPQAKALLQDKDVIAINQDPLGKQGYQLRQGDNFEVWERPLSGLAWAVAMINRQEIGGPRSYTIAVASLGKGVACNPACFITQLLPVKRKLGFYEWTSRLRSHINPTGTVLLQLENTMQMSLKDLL
miR-21 reporter: raises the signal of a miR-21 reporter | HeLa miR-21 FLuc reporter, luciferase, 48 h | 340,000 tested, under 10 active | AID 2288 | Potency, µM (doses to about 38.3 µM), for the others: at the top dose reporter change, positive = more light; active = well fitted rising curve with a large enough effect; inconclusive = small, poorly fitted or top-dose-only effect; inactive = no such curve, though single readings can be large or run the other way;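 note: % of control where 0% means no effect; miR-21 action dims this reporter so a rising signal means less miR-21 action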
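Luminescence from a firefly luciferase reporter carrying a miR-21 binding site downstream, stably expressed under a CMV promoter in HeLa cells that make miR-21 endogenously, reports miRNA modulation after 48 h compound exposure up to approximately 40uM final.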
Rango-impB inh: inhibitors of Rango-importin beta complex formation | Q14974 | Potency, µM (top dose mostly 92.2 µM), without a hit: top-dose inhibition of complex formation | actives 0.031% (n = 340,000) | Rango CFP/YFP FRET sensor + importin beta, 45 min | AID 540263; active = rising FRET ratio curve, often small or poorly fitted; inconclusive = mostly compound fluorescence or quenching in the first reads; inactive = flat curves in all reads;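 note: potency is the fitted concentration of half-maximal effect; 0% = DMSO wells and 100% = buffer wells lacking importin beta; nearly all actives have a fitted effect of over 15% in size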
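FRET biosensor Rango (snurportin 1 IBB between N-terminal EYFP and C-terminal Cerulean), 50 nM in PBS/1 mM DTT/0.02% Tween-20/0.1% BSA, preincubated 5 min RT with compound; 0.125 microM importin beta added, 45 min RT, CFP/YFP FRET ratio read.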
Rango dissoc inh: inhibition of RanGTP-driven Rango-importin beta dissociation | O95149+P62826 | Biochemical FRET Rango-importin beta, RanGTP-induced dissociation | Potency, µM (series often up to 46.1 µM), for inactives: at the highest dose activity change, negative = inhibition | actives 0.071% (n = 340,000) | AID 540253; active means falling FRET ratio curve, often poorly fitted, with flat reads before Ran was added; inconclusive means other falling curves, or compound fluorescence or quenching; inactive means flat or rising ratio curve;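 note: potency is the fitted concentration of half-maximal effect; % of control where 0% means no effect; nearly all actives have a fitted effect of over 45% in size; -100% = wells without RanGTP and RCC1; the record marks most hits as doubtful in a second field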
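FRET read at 45 min, room temperature: inhibitors block the CFP/YFP signal rise when RanGTP (0.6 uM Ran, 2 mM GTP, 0.2 uM RCC1) frees Rango (0.1 uM) from importin beta (0.25 uM). Pre-read after 5 min compound exposure flags interference.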
Numbers without * were called inactive; ? = inconclusive; nt = not tested or not shown; & = joins results of further samples. An excerpt; the hit share may differ from the screen's.

SMILES	GLA inh pH 4.5	miR-21 reporter	Rango-impB inh	Rango dissoc inh
CCOc1ccc(/C=N/Nc2nc(=O)[nH]nc2C)cc1OC	-12	0%	4.5%	15%
N#Cc1cccc(NC(=O)COc2ccc(-n3ccnc3)cc2)c1	0	27%	-3.0%	24%
Cc1nnc2ccc(Oc3ccc(-c4ccccc4)cc3)nn12	4	4%	-0.4%	4%
O=C(CCc1nnc2ccc(N3CCCC3)nn12)Nc1ccc(F)cc1F	nt	-1%	-2.0%	23%
O=C1NC(=S)S/C1=C\c1cc(Cl)ccc1Cl	nt	nt	-0.7%	22%
O=C(/C=C/c1cccs1)Nc1ccc([N+](=O)[O-])cc1	0	-37%	1.2%	21%
COc1ccc(/C=N/NC(=O)c2ccc3nc[nH]c3c2)cc1	-11	-11%	9.2%	0%
CCCc1cc(=O)oc2cc(C)cc(OCC(=O)NC(Cc3c[nH]c4ccc(O)cc34)C(=O)O)c12 (centres undefined)	nt	0%	-0.2%	-3%
CCSC1=N/C(=C\c2ccc(OC)cc2)C(=O)N1	19	-16%	-0.4%	1%
CCc1c(C)nc(SCC(=O)c2cccs2)c(C#N)c1C	0	-57%	?	?
CCCCc1c(C)nc2ccccc2c1SCCC#N	-4	2%	-0.5%	-10%
O=C(NC1CCN(C(=O)NC2CCCCC2)CC1)c1ccco1	8	-2%	0.5%	-15%

Some of the entries so far, with bars between the fields.
mol | GLA inh pH 4.5 | miR-21 reporter | Rango-impB inh | Rango dissoc inh
O=C(/C=C/c1cccs1)Nc1ccc([N+](=O)[O-])cc1 | 0 | -37% | 1.2% | 21%
COc1ccc(/C=N/NC(=O)c2ccc3nc[nH]c3c2)cc1 | -11 | -11% | 9.2% | 0%
CCCc1cc(=O)oc2cc(C)cc(OCC(=O)NC(Cc3c[nH]c4ccc(O)cc34)C(=O)O)c12 (centres undefined) | nt | 0% | -0.2% | -3%

Carrying on.
SMILES	GLA inh pH 4.5	miR-21 reporter	Rango-impB inh	Rango dissoc inh
CSc1ccccc1C(=O)C1CCCN(C(=O)c2ccc(N3CCOCC3)cc2)C1 (centres undefined)	0	1%	-3.9%	?
COc1ccc([C@H]2/C=C\CN(C(=O)[C@H](Cc3ccccc3)NC(=O)OCC3c4ccccc4-c4ccccc43)CC(=O)N2Cc2ccc(F)cc2)cc1	nt	nt	4.0%	26%
COc1ccc(C2Sc3nncn3N2Cc2ccc(C#N)cc2)cc1 (centres undefined)	1	-5%	-0.5%	9%
O=c1cc2c(nn1Cc1cccc(Cl)c1)-c1ccccc1CC2	-8	1%	0.2%	17%
Nc1c(Cl)c(Cl)nc(C(=O)OCC(=O)NCc2ccccc2)c1Cl	nt	nt	-1.3%	-17%
O=C(N/N=C/c1ccc2c(c1)OCO2)/C(=C/c1ccc2c(c1)OCO2)NC(=O)c1ccccc1	-5	-4%	?	-12%
CN(C)c1ccc(P(=O)(OC2CCCCC2)C(O)c2cccnc2)cc1 (centres undefined)	-1	-9%	-0.7%	-11%
O=C(CSc1nc2ccccc2n1CCc1ccccc1)NC1CCS(=O)(=O)C1 (centres undefined)	2	5%	-0.7%	-18%
COc1ccccc1N(C)S(=O)(=O)c1ccc(C(=O)N2CCCC(C(F)(F)F)C2)cc1 (centres undefined)	nt	nt	1.1%	2%
CCOC(=O)c1ccc(NC(=S)NNC(C)(C)C)cc1	-3	-48%	-3.6%	15%
Cc1ccc(CNC(=O)c2ccc(N3CCC4(CC3)CC(c3ccccc3)=NO4)c(NC(=O)c3c(Cl)cccc3Cl)c2)cc1	nt	nt	-5.5%	1%
COc1ccc(NC(=O)CN2C(=O)/C(=C3\SC(=S)N(C4CCS(=O)(=O)C4)C3=O)c3ccccc32)cc1 (centres undefined)	1	-7%	0.9%	-4%

Of the compounds above, these contain a thiophene ring, fused or not.
SMILES	GLA inh pH 4.5	miR-21 reporter	Rango-impB inh	Rango dissoc inh
O=C(/C=C/c1cccs1)Nc1ccc([N+](=O)[O-])cc1	0	-37%	1.2%	21%
CCc1c(C)nc(SCC(=O)c2cccs2)c(C#N)c1C	0	-57%	?	?

Further compounds.
SMILES	GLA inh pH 4.5	miR-21 reporter	Rango-impB inh	Rango dissoc inh
Cc1ccc(C(=O)Nc2ccc(NC(=O)c3cccs3)cc2)cc1[N+](=O)[O-]	9	-24%	0.0%	-2%
CCOC(=O)c1c(C)n(C)c2ccc(OCC(O)Cn3nc(C)c(Br)c3C)cc12 (centres undefined)	-10	2%	1.0%	-6%
COc1cc(C(=O)NC(=S)Nc2ccc3c(c2)C(=O)N(C)C3=O)cc(OC)c1OC	11	-4%	-2.7%	-6%
O=C1c2ccccc2C(=O)c2c1cccc2N1CCOCC1	-3	-65%	-5.7%	13%
Cc1ccc(NC(=O)C2CCCN2C(=O)OCc2ccccc2)cc1C (centres undefined)	nt	-1%	-1.2%	0%
CC(=O)c1ccc(NC(=O)C2Cc3ccccc3CN2C(=O)c2ccccc2)cc1 (centres undefined)	-12	-33%	1.3%	0%
Cc1ccc(-c2csc(/C(C#N)=C/Nc3ccccc3SC(F)(F)F)n2)c(C)c1	-5	-8%	-4.1%	8%
O=[N+]([O-])c1ccc(/C=N/Nc2cc(Cl)nc(-c3ccccc3)n2)cc1	8	-4%	-2.0%	7%
CCOCCCNc1nc2c(-c3ccccc3)nnn2c2ccccc12	0	-10%	0.5%	-5%
Cc1ccc(C)c(N(CC(=O)NC2CCCC2)S(=O)(=O)c2ccccc2)c1	nt	4%	-0.5%	-11%
O=C(Nc1ccc(N2CCN(C(=O)c3ccc(Cl)cc3)CC2)cc1)c1cc2ccccc2o1	2	-2%	-5.6%	4%
COc1ccccc1N1CC(C)(C)C(=O)N(C(=O)c2ccc(Cl)cc2)C1=S	7	28%	0.5%	-4%
Cc1cnc(C(=O)OCC(=O)Nc2cc(-c3ccccc3)nn2-c2ccccc2)cn1	nt	nt	-2.8%	2%
CC(OC(=O)Cn1cnc2c1c(=O)n(C)c(=O)n2C)C(=O)NCc1ccccc1 (centres undefined)	nt	nt	-1.1%	46%
CCOC(=O)C1CCCCN1Cc1ccc(C(F)(F)F)cc1 (centres undefined)	0	1%	0.3%	12%
O=C(CCc1ccc(O)cc1)N/N=C/c1coc2ccccc2c1=O	-4	-8%	-4.0%	5%
CCC(=O)N1N=C(c2cccs2)CC1c1ccc(C)cc1 (centres undefined)	nt	-8%	-3.0%	0%
CCc1ccccc1NC(=O)c1cnccn1	1	-10%	-1.4%	1%
CCOc1cc(/C=N/O)ccc1OCc1ccc([N+](=O)[O-])cc1	1	-42%	0.7%	-16%
O=C(CNC(=O)c1ccc(Cl)cc1)NCC(F)(F)F	-1	-11%	4.3%	-25%
Cn1cccc1/C=C1\SC(=O)N(c2ccc(O)cc2)C1=O	-4	-46%	?	?
Cc1nc2scc(C)n2c(=O)c1S(=O)(=O)NCc1ccccc1Cl	nt	2%&-1%	6.4%	16%
COc1ccc(/C=N/NC(C)(C)C)c(OC)c1	6	2%	2.6%	1%
CCCn1c(SCC(=O)Nc2nnc(-c3ccccc3)s2)nnc1-c1ccccn1	-14	-11%	0.2%	1%
CCc1cccc(NC(=O)c2cnn(-c3ccccc3)c2C)c1	nt	-6%	-1.2%	-9%
O=C(NN1C(=O)C2C3C=CC([C@H]4CC34)[C@@H]2C1=O)c1ccc(Br)cc1 (some centres undefined)	-3	0%	1.1%	-2%
CCN1C(=O)CSC1=NC12CC3CC(CC(C3)C1)C2	0	-2%	-2.1%	3%
CC1Cc2ccccc2N1C(=O)COC(=O)CSc1ccc(F)cc1 (centres undefined)	nt	nt	2.6%	6%
CC(C)N(Cc1ccccc1)C(=O)CCc1ccccc1	-4	-4%	-2.5%	?
COC(=O)C1(C)NC(c2ccc(F)cc2)C2C(=O)N(c3ccc(C)cc3)C(=O)C21 (centres undefined)	nt	-4%	4.6%	-3%
CC1=CC=CC2=NC(=O)CC(C)(C(=O)N(CC(=O)NC(C)C)C3CCCC3)N12 (centres undefined)	16	-7%	3.8%	-1%
CCCn1c(N2CCN(C(=O)Nc3ccccc3)CC2)nc2ccccc21	-1	4%	-0.8%	-3%
COc1ccccc1CNC(=O)C1CCN(c2nc3ccccc3o2)CC1	1	-2%	-1.0%	0%
CCN1CCN(C(=O)c2ccc(C(F)(F)F)cc2)CC1	0	-1%	-0.1%	9%
COc1ccc(OCC(=O)OCCN2C(=O)c3ccccc3C2=O)cc1	-4	-2%	-1.6%	-1%
CC(C)(C)NC(=O)CSC(=Nc1cccc(F)c1)NC#N	-13	-16%	?	?
CON(C)S(=O)(=O)c1ccc2c(c1)N(Cc1ccc(C)cc1)C(=O)C1CCCN21 (centres undefined)	6	-12%	?	-10%
CCC(C)(C)n1nnnc1C(CC(C)C)N1CCC(C(N)=O)CC1 (centres undefined)	4	4%	-2.0%	-12%
CSC1=NSC2=NC(=O)/C(=C\c3ccc(OC(=O)c4ccco4)cc3)C(=N)N12	nt	-22%	?	?
Cc1cccc(OCC(=O)Nc2nnc(-c3ccco3)s2)c1	-2	-13%	0.5%	-1%
CN1CCN(S(=O)(=O)c2ccc(C(=O)NC3CCCCC3)cc2)CC1	nt	nt	3.2%	2%
COc1cc(/C=N/NC(=O)CC2(C)OCCCO2)ccc1OCc1ccc(Cl)cc1Cl	-4	-34%	-3.3%	7%
COc1ccccc1C(=O)NNC(=O)c1ccc(NS(=O)(=O)c2cccs2)cc1	nt	-4%	-1.0%	?
Cc1c(Cc2ccccc2)c(=O)oc2cc(OCC(=O)NCC(O)c3ccccc3)ccc12 (centres undefined)	nt	13%	-0.6%	5%
Cc1cc(C(=O)OCC(=O)NC(=O)NC(C)(C)C)c(C)o1	4	-5%	0.4%	0%
CCOc1ccc2nc(SCC(=O)NCc3ccco3)sc2c1	-23	-18%	-2.2%	3%
O=c1c2ccccc2nc(COc2ccccc2)n1/N=C/c1c[nH]c2ccccc12	-5	-5%	3.4%	7%

Record cards, as listed above:
CCOc1ccc2nc(SCC(=O)NCc3ccco3)sc2c1 is listed with GLA inh pH 4.5: -23; miR-21 reporter: -18%; Rango-impB inh: -2.2%; Rango dissoc inh: 3%
Cc1cccc(OCC(=O)Nc2nnc(-c3ccco3)s2)c1 is listed with GLA inh pH 4.5: -2; miR-21 reporter: -13%; Rango-impB inh: 0.5%; Rango dissoc inh: -1%
CSC1=NSC2=NC(=O)/C(=C\c3ccc(OC(=O)c4ccco4)cc3)C(=N)N12 is listed with GLA inh pH 4.5: nt; miR-21 reporter: -22%; Rango-impB inh: ?; Rango dissoc inh: ?
